miR-21 FLuc: raises the signal of a miR-21 reporter | HeLa miR-21 FLuc reporter, luciferase, 48 h | Potency, µM (highest dose often 38.3 µM), for inactives: at the highest dose reporter change, positive = more light | 340,000 tested, under 10 active | AID 2288; active = well fitted rising curve with a large enough effect; inconclusive = small, poorly fitted or top-dose-only effect; inactive = no such curve, though single readings can be large or run the other way;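 note: % of control where 0% means no effect; miR-21 action dims this reporter so a rising signal means less miR-21 action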
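Compounds were titrated across several concentrations (up to approximately 40 uM) and incubated 48 hours with HeLa miR-21-FLuc reporter cells (miR-21 target sequence downstream of FLuc, endogenous miR-21). Readout was firefly luciferase luminescence after lytic detection reagent.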
GLA inh pH 4.5: alpha-galactosidase A (human) inhibition, pH 4.5 | P06280 | purified enzyme, 4-MU-alpha-Gal fluorescence, pH 4.5 | activity change, negative = inhibition, % at 105 µM | 230,000 tested, under 10 active; inconclusive = small, poorly fitted or top-dose-only inhibition, or a rising curve; inactive = flat fitted curve, though single readings scatter; no compound was filed as active;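 note: 0% = full activity with enzyme and -100% = basal without enzyme; dose as in the result columns while the protocol names 77 µM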
Rango-impB inh: prevents formation of the Rango-importin beta complex; AID 540263; Rango CFP/YFP FRET sensor + importin beta, 45 min; actives 0.031% (n = 340,000); Potency, µM (top dose mostly 92.2 µM), without a hit: at the highest dose inhibition of complex formation; Q14974; active = rising FRET ratio curve, often small or poorly fitted; inconclusive = mostly compound fluorescence or quenching in the first reads; inactive = flat curves in all reads;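 note: potency is the fitted concentration of half-maximal effect; 0% = DMSO wells and 100% = buffer wells lacking importin beta; nearly all actives have a fitted effect of over 15% in size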
Target sequence (Q14974 whole entry, looked up): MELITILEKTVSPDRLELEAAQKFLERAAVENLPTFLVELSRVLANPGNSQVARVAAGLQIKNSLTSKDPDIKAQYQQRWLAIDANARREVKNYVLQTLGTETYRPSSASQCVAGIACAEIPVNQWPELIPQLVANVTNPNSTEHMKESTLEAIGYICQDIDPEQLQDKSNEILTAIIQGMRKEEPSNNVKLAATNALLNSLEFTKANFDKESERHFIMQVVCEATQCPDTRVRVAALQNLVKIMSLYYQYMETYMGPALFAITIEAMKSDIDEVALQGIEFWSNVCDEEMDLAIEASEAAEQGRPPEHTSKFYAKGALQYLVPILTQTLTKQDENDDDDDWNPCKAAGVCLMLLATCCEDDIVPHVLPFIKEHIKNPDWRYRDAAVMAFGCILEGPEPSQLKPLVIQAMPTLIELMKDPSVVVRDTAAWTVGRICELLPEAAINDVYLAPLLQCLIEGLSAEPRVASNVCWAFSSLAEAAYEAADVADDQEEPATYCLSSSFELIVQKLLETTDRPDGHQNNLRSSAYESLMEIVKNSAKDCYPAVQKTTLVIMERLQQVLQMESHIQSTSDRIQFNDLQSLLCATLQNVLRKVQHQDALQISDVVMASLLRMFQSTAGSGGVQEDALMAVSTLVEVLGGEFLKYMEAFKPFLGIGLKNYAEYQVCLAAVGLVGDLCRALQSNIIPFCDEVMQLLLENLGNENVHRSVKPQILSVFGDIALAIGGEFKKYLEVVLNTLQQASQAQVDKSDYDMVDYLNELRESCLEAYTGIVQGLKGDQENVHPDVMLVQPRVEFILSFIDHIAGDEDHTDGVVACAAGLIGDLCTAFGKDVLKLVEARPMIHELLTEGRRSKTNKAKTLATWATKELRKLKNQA
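FRET biosensor Rango (snurportin 1 IBB between N-terminal EYFP and C-terminal Cerulean), 50 nM in PBS/1 mM DTT/0.02% Tween-20/0.1% BSA, preincubated 5 min RT with compound; 0.125 microM importin beta added, 45 min RT, CFP/YFP FRET ratio read.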
Rango release inh: prevents RanGTP from dissociating the Rango-importin beta complex; Biochemical FRET Rango-importin beta, RanGTP-induced dissociation; O95149+P62826; AID 540253; actives 0.071% (n = 340,000); Potency, µM (titrated, usually from 46.1 µM), without a hit: at the top dose activity change, negative = inhibition; active means falling FRET ratio curve, often poorly fitted, with flat reads before Ran was added; inconclusive means other falling curves, or compound fluorescence or quenching; inactive means flat or rising ratio curve;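 note: potency is the fitted concentration of half-maximal effect; % of control where 0% means no effect; nearly all actives have a fitted effect of over 45% in size; -100% = wells without RanGTP and RCC1; the record marks most hits as doubtful in a second field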
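Two FRET readings bracket the reaction: one 5 min after compound meets Rango–importin beta, another 45 min after RanGTP-RCC1 (0.6 uM Ran, 0.2 uM RCC1, 2 mM GTP) is added. Only the second defines inhibition.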
* marks the source's active call; other numbers are inactive results; ? = inconclusive; nt = not tested or not shown; & = joins results of further samples. An excerpt, so the mix of outcomes need not match the whole.

Preview, 16 compounds:
| smiles | miR-21 FLuc | GLA inh pH 4.5 | Rango-impB inh | Rango release inh |
| --- | --- | --- | --- | --- |
| Cc1ccc(-c2nnn(CC(=O)Nc3ccc4nn(-c5ccccc5)nc4c3)n2)o1 | -12% | 0 | 0.6% | 24% |
| CCN(CC(=O)Nc1c(F)cccc1F)C(=O)Cc1ccc2c(c1)OCCO2 | nt | nt | 0.0% | -6% |
| COc1ccc(C(=O)N2CCCCCCC2)cc1OC1CCN(C(C)C)CC1 | -5% | nt | 2.1% | 29% |
| O=C(N=Nc1ccc(NOC(=O)c2ccccc2Br)cc1)c1ccccc1O | -11% | -5 | nt | nt |
| Cc1cccc(NC(=O)C(C)Oc2ccccc2C)n1 (configuration not stated) | -8% | 3 | -2.8% | 3% |
| O=C(O)C1[C@H]2C(=O)N(C3CCCC3)C[C@]23C=C[C@H]1O3 (some centres not stated) | -2% | nt | 0.1% | 16% |
| COc1ccc(C2C3=C(CC(C)(C)CC3=O)Oc3ncn(CCCn4ccnc4)c(=N)c32)cc1 (configuration not stated) | -19% | 1 | 0.1% | -7% |
| CCn1c(=O)cc(N2CCC3(CC2)OCCO3)[nH]c1=O | -2% | 6 | -1.6% | 14% |
| NNC(=O)c1cc2ccccc2cc1NS(=O)(=O)c1ccccc1 | 2% | nt | ? | -25% |
| CC(C)C(=O)NC(Nc1cccc2cccnc12)C(Cl)(Cl)Cl (configuration not stated) | 8% | -17 | -5.7% | 3% |
| O=C(Nc1nnc(-c2ccc(F)cc2)o1)c1cc(Cl)sc1Cl | -2% | 3 | -0.3% | 21% |
| O=C(Nc1cccnc1)Nc1cc(Cl)cc(Cl)c1 | ? | 1 | 0.2% | -2% |
| C[C@H](CO)N1C[C@H](C)[C@@H](CN(C)C(=O)NC2CCCCC2)Oc2ccc(NS(=O)(=O)c3cn(C)cn3)cc2C1=O | nt | nt | -4.0% | -12% |
| Nc1ccc(-c2nc(-c3ccccc3)nc3ccccc23)cc1 | 1% | nt | ? | ? |
| O=C(O)c1cccc(NC(=O)c2ccccc2NC(=O)c2ccccc2F)c1 | 0% | nt | 5.1% | -2% |
| CCN1C(=O)/C(=C\c2cccc(OC(=O)c3ccco3)c2)SC1=S | -2% | nt | -0.6% | -7% |

Results, from the first entry:
| smiles | miR-21 FLuc | GLA inh pH 4.5 | Rango-impB inh | Rango release inh |
| --- | --- | --- | --- | --- |
| Cc1ccc(-c2nnn(CC(=O)Nc3ccc4nn(-c5ccccc5)nc4c3)n2)o1 | -12% | 0 | 0.6% | 24% |
| CCN(CC(=O)Nc1c(F)cccc1F)C(=O)Cc1ccc2c(c1)OCCO2 | nt | nt | 0.0% | -6% |
| COc1ccc(C(=O)N2CCCCCCC2)cc1OC1CCN(C(C)C)CC1 | -5% | nt | 2.1% | 29% |
| O=C(N=Nc1ccc(NOC(=O)c2ccccc2Br)cc1)c1ccccc1O | -11% | -5 | nt | nt |
| Cc1cccc(NC(=O)C(C)Oc2ccccc2C)n1 (configuration not stated) | -8% | 3 | -2.8% | 3% |
| O=C(O)C1[C@H]2C(=O)N(C3CCCC3)C[C@]23C=C[C@H]1O3 (some centres not stated) | -2% | nt | 0.1% | 16% |
| COc1ccc(C2C3=C(CC(C)(C)CC3=O)Oc3ncn(CCCn4ccnc4)c(=N)c32)cc1 (configuration not stated) | -19% | 1 | 0.1% | -7% |
| CCn1c(=O)cc(N2CCC3(CC2)OCCO3)[nH]c1=O | -2% | 6 | -1.6% | 14% |
| NNC(=O)c1cc2ccccc2cc1NS(=O)(=O)c1ccccc1 | 2% | nt | ? | -25% |
| CC(C)C(=O)NC(Nc1cccc2cccnc12)C(Cl)(Cl)Cl (configuration not stated) | 8% | -17 | -5.7% | 3% |
| O=C(Nc1nnc(-c2ccc(F)cc2)o1)c1cc(Cl)sc1Cl | -2% | 3 | -0.3% | 21% |
| O=C(Nc1cccnc1)Nc1cc(Cl)cc(Cl)c1 | ? | 1 | 0.2% | -2% |
| C[C@H](CO)N1C[C@H](C)[C@@H](CN(C)C(=O)NC2CCCCC2)Oc2ccc(NS(=O)(=O)c3cn(C)cn3)cc2C1=O | nt | nt | -4.0% | -12% |
| Nc1ccc(-c2nc(-c3ccccc3)nc3ccccc23)cc1 | 1% | nt | ? | ? |
| O=C(O)c1cccc(NC(=O)c2ccccc2NC(=O)c2ccccc2F)c1 | 0% | nt | 5.1% | -2% |
| CCN1C(=O)/C(=C\c2cccc(OC(=O)c3ccco3)c2)SC1=S | -2% | nt | -0.6% | -7% |
| O=C(NC1CC1)C(Cc1ccccc1)NS(=O)(=O)c1ccccc1F (configuration not stated) | 1% | nt | -2.5% | -19% |
| O=C(NCc1ccccc1)c1csc2c1CCCC2 | -30% | 1 | 0.7% | -8% |
| O=C1OC(N2CCN(C/C=C/c3ccccc3)CC2)c2ccccc21 (configuration not stated) | -4% | 4 | -1.8% | 3% |
| O=C(COc1ccc2c3c(c(=O)oc2c1)CCC3)NCc1ccccn1 | -9% | nt | -0.1% | 15% |
| O=c1ccc(-c2ccc(S(=O)(=O)N3CCCCC3)o2)n[nH]1 | -7% | nt | 1.0% | -16% |
| CC(C)N(C)C1=CC(=O)C(N(C)C(C)C)=CC1=O | nt | nt | -5.4% | -13% |
| CC(C(=O)NCC1(c2ccccc2)CCCC1)N1CCCC1 (configuration not stated) | -5% | 4 | 1.2% | 17% |
| Cn1c(=O)c2c(nc(CN3CCN(Cc4ccccc4)CC3)n2Cc2cccc(Cl)c2)n(C)c1=O | 16% | -4 | -4.9% | -6% |
| CCOC(=O)C1CCN(C(=O)c2ccc(OCC(=O)Nc3cccc(C(F)(F)F)c3)cc2)CC1 | 4% | nt | -5.4% | -5% |
| COc1cc(C(=O)OCC(=O)NCCC2=CCCCC2)cc(OC)c1OC | nt | nt | 0.1% | 12% |
| CCCCN(CCCC)C(=O)c1cn(CC)c2cc(N3CCN(C)CC3)c(F)cc2c1=O | 0% | nt | -3.4% | 0% |
| COc1cc(CCC(=O)Nc2cc(Cl)ccc2N2CCN(C)CC2)cc(OC)c1OC | 0% | 2 | 4.5% | 4% |
| CCOc1ccnc(OCC)c1Br | -2% | 5 | 0.1% | -3% |
| O=C(c1ccccc1Nc1ccc(SC(F)F)cc1)N1CCCCCC1 | 15% | -18 | -0.3% | -5% |
| CN(C)CCNC(=O)C1CCN(S(=O)(=O)c2ccc3ccccc3c2)CC1 | -9% | nt | 0.9% | 6% |
| C[C@@]12CCC3[C@@](CCC4[C@@]3(C)CCC[C@@]4(C)C(=O)Nc3ccc(Cl)cc3)(CC1=O)C2 (some centres not stated) | nt | nt | -0.8% | -5% |
| CC(Sc1nc2cc(Cl)ccc2s1)C(=O)Nc1ccc2c(c1)OCO2 (configuration not stated) | -47% | 2 | 0.3% | 8% |
| C[C@H]1C=C(C(=O)NC2CC2)O[C@@H](OCc2ccc(CO)cc2)C1 | -24% | 4 | 6.6% | -9% |
| O=C(O)/C=C/C(=O)NCCc1cccc(Cl)c1 | 0% | 4 | -0.9% | -1% |
| C[N+]1(CC(=O)OC2CCCCCCCCCCC2)CCCC1 | 29% | 0 | -2.6% | 0% |
| CSc1cccc(NC(=O)C2CCN(C(=O)c3ccccc3C)CC2)c1 | 5% | -8 | 1.9% | 0% |
| COc1ccccc1NC(=O)c1nc[nH]c1C(=O)Nc1ccccc1OC | 9% | -5 | -0.4% | -17% |
| CCOc1ccccc1N(C(=O)c1snc(C(N)=O)c1N)C(C(=O)NCCC(C)C)c1ccco1 (configuration not stated) | 0% | -6 | -0.5% | 0% |
| O=C1OC(N2CCN(c3ccccn3)CC2)c2ccccc21 (configuration not stated) | 0% | 0 | 0.4% | 1% |
| CCN(CC)c1ccc(/C=C2\C(=O)c3ccc(C(=O)O)cc3C2=O)cc1 | -5% | 3 | ? | ? |
| COCCNC(=O)c1onc(CSc2ccc(F)c(F)c2)c1C(=O)O | -1% | 3 | -4.0% | -8% |
| O=C(O)c1ccc(Sc2nnc3ccccn23)c([N+](=O)[O-])c1 | 2% | 7 | 2.3% | 6% |
| COc1ccc(CCNC(=O)c2ccc(CNS(=O)(=O)c3ccccc3)cc2)cc1OC | 21%&2% | 10 | 2.1% | -16% |
| CCn1cc(C(=O)N2CCN(c3ccccc3)CC2)c(=O)c2cc(S(=O)(=O)N3CCOCC3)ccc21 | -2%&0% | nt | 0.2% | 12% |
| CC12CC(NC(=O)N1c1cccc(C(=O)N3CCN(c4ccccn4)CC3)c1)c1ccccc1O2 (configuration not stated) | 0% | 2 | -0.4% | 13% |
| C[N+](C)(C)CCNC(=O)c1cc[n+](Cc2ccccc2)c(/C=N/O)c1 | 2% | nt | 2.6% | 19% |
| Cc1cc(C)c(C#N)c(Nc2cccc(Br)c2)n1 | -3% | nt | 0.8% | 8% |
| O=C(CSc1nc2ncc(Cl)cc2[nH]1)NCCc1ccc(F)cc1 | 0% | -2 | -2.4% | 15% |
| Cn1cccc1/C=N/NC(=O)c1ccn[nH]1 | -55% | -8 | -0.9% | 1% |

Further compounds follow.
| smiles | miR-21 FLuc | GLA inh pH 4.5 | Rango-impB inh | Rango release inh |
| --- | --- | --- | --- | --- |
| O=C(CN1CCc2cc3c(cc2C1)OCCCO3)Nc1ccccc1 | -1% | nt | 0.1% | -9% |
| CCSc1nnc(NC(=O)[C@H](C)N2C(=O)C3CC=CCC3C2=O)s1 (some centres not stated) | -1% | -7 | -6.1% | 11% |
| CCCn1c(O)c(N=Nc2ccc3ccccc3n2)c2ccccc21 | -25% | -6 | 0.5% | -6% |
| CCN1C(=O)CC(NNC(=O)c2ccc(Cl)cc2)C1=O (configuration not stated) | -1% | -28 | -14% | -57% |
| CC(=O)Nc1ccc(NC(=O)C(OC(=O)c2ccccc2)C(OC(=O)c2ccccc2)C(=O)O)cc1 (configuration not stated) | -1% | 9 | -0.2% | -5% |
| C=CCOc1ccc(/C=N/NC(=O)C(C)Sc2ccccn2)cc1OC (configuration not stated) | -18% | 0 | 0.3% | 3% |
| CCOc1ccc(C(=O)NNC(=O)CNC(=O)c2ccc(C)s2)cc1OC | nt | nt | 5.5% | -4% |
| COC(=O)c1cc(C(=O)c2ccc(C(C)(C)C)cc2)c[nH]1 | -14% | -7 | 6.2% | 2% |
| CCC(=O)Nc1nnc(S(=O)(=O)N2CCCCCC2)s1 | -1%&-5% | nt | 10% | 11% |
| C1CCCC(NC2=NCCO2)CCC1 | -1% | 2 | 1.4% | 16% |
| COc1ccc(NC(=S)NCCN2CCOCC2)c(OC)c1 | nt | nt | 0.5% | 3% |
| O=C(COc1cccnc1[N+](=O)[O-])N1CCN(S(=O)(=O)c2ccccc2)CC1 | -11% | -3 | 2.9% | -22% |
| O=C(/C=C/c1ccc(Cl)cc1Cl)NC(=S)Nc1ccc(CN2CCOCC2)cc1 | 2% | 5 | 1.3% | 19% |
| O=C(Nc1nnc(C2=COCCO2)o1)c1cccc(C(F)(F)F)c1 | 0% | nt | -0.5% | 13% |
| CC1=NOC2(C1)/C(=N/O)CCC/C2=N\O (configuration not stated) | 3% | 16 | -1.3% | -4% |
| Cc1ccc(-n2nnc(-c3cc4ccccc4n3C)n2)cc1 | -35% | 2 | ? | -14% |
| O=C(/C=C/c1cccs1)NC1CCS(=O)(=O)C1 (configuration not stated) | -4% | -4 | -2.6% | -4% |
| O=C(COC(=O)c1ccccc1Br)Nc1cccnc1Cl | nt | nt | 3.4% | 23% |
| CCN1CCCC1CNC(=O)c1cc2c(C)nc3ccccc3c2o1 (configuration not stated) | 18% | 8 | -3.6% | 7% |
| O=C(CCNC(=O)c1ccc(Cl)cc1)Nc1cccc(S(=O)(=O)N2CCCCCC2)c1 | nt | nt | 4.2% | 8% |
| Cc1cccc(NC(=O)c2cc(=O)c3ccccc3o2)n1 | -42% | 6 | -0.2% | 0% |
| CCOC(=O)c1c(S(=O)(=O)N2CCN(C3CCCCC3)CC2)c(C)n(C)c1C | -8% | nt | -0.2% | 7% |

Source: PubChem
